Screens (PubChem)
GAA glycogen mod: qHTS Assay for Inhibitors and Activators of Human alpha-Glucosidase Cleavage of Glycogen; 300,000 tested, 0.38% active; Potency, µM (doses to about 76.4 µM), for inactives: at the top dose activity change, negative = inhibition, usual class: inhibitors; Lysosomal alpha-glucosidase (Homo sapiens), P10253; AID 2100, 2009; recombinant GAA, glycogen substrate, Amplex Red glucose oxidase fluorescence;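 also: 0% = full enzyme reaction and -100% = no-enzyme basal signal; the screen sought inhibitors and activators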
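Recombinant human alpha-glucosidase (4 nM final) hydrolysed bovine liver glycogen (30 ug) for 40 min at 37 C in pH 5.0 citrate/phosphate with 0.01% Tween-20. Released glucose detected by glucose oxidase/Amplex Red, Ex 573/Em 610 nm. Compounds up to 77 uM; AC50 from Hill fits.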
GoLoco inh red: qHTS Assay for Inhibitors of RGS12 GoLoco Motif Activity (Red Fluorophore); 230,000 tested, 0.44% active; Gai1:RGS12 GoLoco peptide FP, rhodamine, 10 min; Guanine nucleotide-binding protein G(i) subunit alpha-1 (Homo sapiens), P63096; Potency, µM (top dose mostly 61.6 µM), for the others: top-dose activity, negative = inhibition, hits mostly inhibitors; active = well fitted inhibition curve with a large enough effect, not every such curve was filed as active; inactive = no such curve, though single readings can be large or run the other way; also: % is scaled to controls: 0 for no effect and ±100 for the full control effect; nearly all actives have a fitted effect of over 30% in size; many of its hits are not listed in these tables
Target sequence (P63096 whole entry, looked up): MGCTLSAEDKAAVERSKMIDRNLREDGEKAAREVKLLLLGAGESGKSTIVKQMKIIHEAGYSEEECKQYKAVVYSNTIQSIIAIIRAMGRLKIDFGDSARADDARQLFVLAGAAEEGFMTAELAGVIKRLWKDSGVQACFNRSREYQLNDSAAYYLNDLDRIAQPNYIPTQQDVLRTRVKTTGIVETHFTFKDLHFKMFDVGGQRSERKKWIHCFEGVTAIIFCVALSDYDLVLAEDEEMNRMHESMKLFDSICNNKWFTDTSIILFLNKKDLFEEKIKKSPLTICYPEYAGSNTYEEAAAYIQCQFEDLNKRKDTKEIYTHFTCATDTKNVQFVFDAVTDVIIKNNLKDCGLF
ALDH1A1 inh: qHTS Assay for Inhibitors of Aldehyde Dehydrogenase 1 (ALDH1A1) | Aldehyde dehydrogenase 1A1 (Homo sapiens), P00352 | Purified ALDH1A1, NADH fluorescence, propionaldehyde substrate | Potency, µM (doses to about 75.3 µM), for the others: at the highest dose activity, negative = inhibition, actives largely listed as inhibitors | 220,000 tested, 7.3% active; active = well fitted inhibition curve with a large enough effect, not every such curve was filed as active; inconclusive = small, poorly fitted or top-dose-only effect, or another doubt; inactive = no such curve, though single readings can be large or run the other way;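 also: plate controls were no enzyme wells and a reference inhibitor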
aGal spleen mod: qHTS Assay for Inhibitors and Activators of Human alpha-Galactosidase From Spleen Homogenate; human spleen homogenate, 4MU-alpha-Gal fluorescence, 40 min; AID 2107, 2009; Potency, µM (highest dose often 80 µM), without a hit: top-dose activity change, negative = inhibition, usual class: inhibitors; 240,000 tested, 0.008% active; Alpha-galactosidase A (Homo sapiens), P06280;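 also: 0% = enzyme with vehicle and -100% = no enzyme basal signal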
Target sequence (P06280 32-429 limits assumed): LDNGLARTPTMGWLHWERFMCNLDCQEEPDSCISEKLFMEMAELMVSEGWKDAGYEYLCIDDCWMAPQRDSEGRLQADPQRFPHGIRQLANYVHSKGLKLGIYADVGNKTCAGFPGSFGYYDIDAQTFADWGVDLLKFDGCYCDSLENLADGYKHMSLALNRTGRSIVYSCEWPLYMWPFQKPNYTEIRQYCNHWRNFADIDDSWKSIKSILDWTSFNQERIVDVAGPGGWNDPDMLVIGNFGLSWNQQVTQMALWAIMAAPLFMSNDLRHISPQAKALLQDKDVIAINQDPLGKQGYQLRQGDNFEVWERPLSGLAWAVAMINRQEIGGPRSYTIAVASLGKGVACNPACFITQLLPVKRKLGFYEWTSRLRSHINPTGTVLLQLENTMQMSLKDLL
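Inhibition or activation of alpha-galactosidase in human spleen homogenate is scored by 4-MU fluorescence after 40 min at 37C, pH 5.0, with 1 mM substrate. AC50s come from concentration-response fitted to the Hill equation.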
SMN2 splice enh: qHTS Assay for Enhancers of SMN2 Splice Variant Expression; HEK293 SMN2-luciferase splicing reporter, luminescence, 30-36 h; Potency, µM (doses to about 46.1 µM), for the others: at the highest dose activity change, positive = activation, actives largely listed as activators; 210,000 tested, 2.8% active; also: % of control where 0% means no effect; nearly all actives have a fitted effect of over 55% in size
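HEK293 cells carry an SMN2 […]–luciferase reporter in which exon 7 inclusion puts luciferase in frame. Cells were plated 10-12 h before compound addition, then incubated 30-36 h at 37C. ONE-Glo luminescence was read; sodium butyrate at 4.5 mM final served as control.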
GAA spleen mod: qHTS Assay for Inhibitors and Activators of Human alpha-Glucosidase From Spleen Homogenate; human spleen homogenate, 4-MU-alpha-glucoside fluorescence; Potency, µM (doses to about 79.9 µM), for the others: top-dose activity change, negative = inhibition, actives largely listed as inhibitors; 240,000 tested, 0.006% active; AID 2112, 2009;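 also: 0% = enzyme with vehicle and -100% = no enzyme basal signal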
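Human spleen homogenate (1 ug) with 4-methylumbelliferyl-alpha-D-glucopyranoside (1 mM final) in 50 mM citrate/phosphate pH 5.0, 0.01% Tween-20; 40 min at 37 C. Stopped at pH 10; 4-MU fluorescence Ex 365/Em 440 nm; AC50 by Hill fit.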
GAA inhib: qHTS Assay for Inhibitors of Human alpha-Glucosidase as a Potential Chaperone Treatment of Pompe Disease | Lysosomal alpha-glucosidase (Homo sapiens), P10253 | purified human GAA, 4-MU-alpha-glucoside fluorescence | Potency, µM (titrated, usually from 76.9 µM), for the others: at the top dose activity change, negative = inhibition, hits mostly inhibitors | 200,000 tested, 0.005% active | AID 1466, 2008;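 also: plate controls were uninhibited enzyme wells for no effect and no-enzyme background for full effect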
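AC50 values come from Hill fits of compound titrations (up to 77 uM) against 4 nM human enzyme. Substrate 4-methylumbelliferyl-alpha-D-pyranoside at 400 uM, pH 5.0 citrate buffer, 20 min room temperature; fluorescence Ex 365/Em 440 after alkaline stop.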
The depositor's hits bear a star; ? = inconclusive; · = no result given; [ ] = another dose, or the depositor's remark. Unless noted, calls follow the shape of the dose curve; as a rule, active = well fitted curve in the direction sought with a large enough effect; inconclusive = small, poorly fitted or top-dose-only effect, or another doubt; inactive = no such curve, though single readings can be large; an effect the other way counts as inactive or inconclusive. Potency is read from the fitted curve at half-maximal effect. The list is partial, so the mix of outcomes need not match the whole.

GAA glycogen mod,GoLoco inh red,ALDH1A1 inh,aGal spleen mod,SMN2 splice enh,GAA spleen mod,GAA inhib,canonical_smiles
9%,9%,?,0%,7%,0%,12%,O=C(Nc1ccccc1)c1ccc(C(=O)Nc2ccccc2)nc1
-2%,1%,-12%,5%,-26%,-6%,1%,Cc1cccc(OCc2nc3c4c(ncn3n2)-c2ccccc2CC42CCCC2)c1
?,-4%,2.5µM*,-1%,·,2%,0%,S=c1[nH]nc(Nc2cccc(Cl)c2)s1
-5%,-3%,10µM*,4%,-5%,-4%,-5%,COc1ccc(C)cc1-n1[nH]nnc1=S
?,23%,-14%,-2%,-9%,-8%,3%,Cc1cc(-c2c(C)[nH]n(-c3ccccc3)c2=O)n[nH]1
-4%,8%,-11%,-4%,-6%,-19%,-5%,CCOc1cccc(OCCCOc2cccc3cccnc23)c1
-3%,-5%,?,-2%,7%,-1%,-3%,CCc1nc(C)ccc1OCC(=O)NCCCN(C)C
-7%,6%,14µM*,5%,-31%[inhibitor],0%,?,c1ccc2c(c1)ncn2CCCCOc1ccc2c(c1)CCC2
-3%,9%,?,-4%,-8%,-7%,8%,COc1ccccc1C(CC(=O)Nc1ccc(Cl)cc1)c1ccc(OC(C)C)cc1 (configuration not stated)
-24%,12%,-11%,1%,8%,-12%,-7%,CCC(C)NC(=O)Cn1cc(S(=O)(=O)N2CCN(c3ccccc3F)CC2)c2ccccc2c1=O (configuration not stated)
3%,4%,?,-1%,-2%,-1%,1%,CC(C)Oc1ccccc1OCCN(C)C
?,-22%,9.5µM*,-5%,10%,2%,-3%,O=C1CN(CC(=O)N2CCOCC2)c2ccccc2O1
11%,5%,-8%,-1%,-16%,2%,-16%,Cc1cc(C)cc(N(C(C)C(=O)NCCC2=CCCCC2)S(C)(=O)=O)c1 (configuration not stated)
19%,-12%,?,0%,-11%,-4%,3%,O=C1c2cccc3cccc(c23)C(=O)N1OS(=O)(=O)c1ccc(Br)cc1
4%,-3%,·,6%,·,5%,·,Nc1nc(-c2ccccc2)[nH]c(=O)c1N=O
-11%,·,?,-1%,·,-15%,?,Cc1c(/C=N/NC(=O)CNc2ccccc2)c2ccccn2c1C(=O)c1ccccc1
4%,-3%,?,-6%,10µM*,-4%,-3%,CCC(CO)Nc1ncnc2c1cnn2-c1ccc(OC)cc1 (configuration not stated)
8%,-1%,-10%,-13%,8%,-3%,-9%,CCN1CCN(CC(=O)N/N=C/c2ccc(F)cc2F)CC1
?,-9%,?,-6%,-5%,-10%,?,CNCCOc1ccccc1C(C)(C)C
5%,-1%,·,-2%,·,8%,·,CCN1CCN(C(C)C(=O)NC2CCCCC2)CC1 (configuration not stated)

Sorted by length of the SMILES (descending): part of the list above
GAA glycogen mod,GoLoco inh red,ALDH1A1 inh,aGal spleen mod,SMN2 splice enh,GAA spleen mod,GAA inhib,canonical_smiles
-24%,12%,-11%,1%,8%,-12%,-7%,CCC(C)NC(=O)Cn1cc(S(=O)(=O)N2CCN(c3ccccc3F)CC2)c2ccccc2c1=O (configuration not stated)
-11%,·,?,-1%,·,-15%,?,Cc1c(/C=N/NC(=O)CNc2ccccc2)c2ccccn2c1C(=O)c1ccccc1
19%,-12%,?,0%,-11%,-4%,3%,O=C1c2cccc3cccc(c23)C(=O)N1OS(=O)(=O)c1ccc(Br)cc1
-3%,9%,?,-4%,-8%,-7%,8%,COc1ccccc1C(CC(=O)Nc1ccc(Cl)cc1)c1ccc(OC(C)C)cc1 (configuration not stated)
?,23%,-14%,-2%,-9%,-8%,3%,Cc1cc(-c2c(C)[nH]n(-c3ccccc3)c2=O)n[nH]1
8%,-1%,-10%,-13%,8%,-3%,-9%,CCN1CCN(CC(=O)N/N=C/c2ccc(F)cc2F)CC1
-7%,6%,14µM*,5%,-31%[inhibitor],0%,?,c1ccc2c(c1)ncn2CCCCOc1ccc2c(c1)CCC2
4%,-3%,?,-6%,10µM*,-4%,-3%,CCC(CO)Nc1ncnc2c1cnn2-c1ccc(OC)cc1 (configuration not stated)
-4%,8%,-11%,-4%,-6%,-19%,-5%,CCOc1cccc(OCCCOc2cccc3cccnc23)c1
4%,-3%,·,6%,·,5%,·,Nc1nc(-c2ccccc2)[nH]c(=O)c1N=O
-3%,-5%,?,-2%,7%,-1%,-3%,CCc1nc(C)ccc1OCC(=O)NCCCN(C)C
3%,4%,?,-1%,-2%,-1%,1%,CC(C)Oc1ccccc1OCCN(C)C
?,-9%,?,-6%,-5%,-10%,?,CNCCOc1ccccc1C(C)(C)C

The results go on:
GAA glycogen mod,GoLoco inh red,ALDH1A1 inh,aGal spleen mod,SMN2 splice enh,GAA spleen mod,GAA inhib,canonical_smiles
13%,8%,4%,-7%,-23%,-5%,-7%,COc1cc(CNCCN2CCOCC2)ccc1OCc1c(Cl)cccc1Cl
9%,-3%,-6%,-1%,-9%,-7%,2%,c1ccc(-c2ccccc2OCCN2CCCCC2)cc1
2%,·,7%,2%,·,2%,-3%,CC1=C(C(=O)Nc2ccccn2)C(c2cccnc2)n2nnnc2N1 (configuration not stated)
-2%,5%,?,-7%,-23%,2%,0%,C=CCc1ccc(OCCCCNC(C)CC)c(OC)c1 (configuration not stated)
1%,-4%,?,7%,·,-4%,-4%,O=[N+]([O-])c1ccc(CNC2CCCc3ccccc32)cc1 (configuration not stated)
4%,-6%,?,-1%,-11%,-1%,2%,Clc1ccc(OCCCn2ccnc2)c(Br)c1
-16%,-48%,7%,6%,-1%,10%,-8%,COc1cc(S(=O)(=O)N2CCOCC2)ccc1NC(=O)COC(=O)C12CC3CC(CC(C3)C1)C2
-5%,12%,?,7%,·,2%,-5%,O=C(NC1CCCCC1)c1cc(F)cc2c1OCOC2
28µM*,1%,?,5%,·,6%,-9%,CC1(C)Cc2c(sc3ncn4c(=S)[nH]nc4c23)CO1
0%,-3%,-11%,-8%,?,0%,-5%,CCN(CC)S(=O)(=O)c1cc(C(=O)Oc2cccc(-c3cnc4ccccc4n3)c2)ccc1Br
9%,3%,·,-9%,·,-3%,·,COc1ccc2[nH]c(=O)c(CNc3ccccc3C)cc2c1
9%,5%,-3%,-2%,8%,-4%,-11%,COc1ccc(OC)c(-c2cc(C(F)(F)F)c3c(n2)sc2c(O)cc(=O)[nH]c23)c1
-2%,5%,25µM*,-2%,-87%[inhibitor],-8%,0%,COc1ccc(CNn2c(-c3cccs3)nc3ccccc3c2=O)cc1OC
-2%,-6%,?,-4%,-26%,-1%,6%,COc1ccc(CN(C)CCc2ccccn2)cc1OC
-3%,10%,0%,-5%,·,-3%,-1%[15.4 µM],O=C(Nc1ncccc1O)c1c(O)c2ccccc2[nH]c1=O
1%,-3%,?,-2%,·,-2%,4%,CC(NCc1cccc(S(=O)(=O)N(C)C)c1)c1ccc(F)cc1 (configuration not stated)
-3%,3%,?,-6%,-21%,-9%,8%,Cc1nnc(C)n1/N=C/c1ccc(C(C)C)cc1
18%,9%,-5%,-1%,-21%,1%,-10%,COc1ccc(S(=O)(=O)N2CCCCC2)cc1NC(=O)CN(C)C1CCCCC1
-2%,0%,28µM*,-13%,-87%[inhibitor],-2%,2%,COc1ccc(C(=O)NC(=S)NNC(=O)c2cnccn2)cc1OC
-2%,8%,4.5µM*,-6%,·,2%,-10%,CCOC(=O)c1sc(S(C)=O)c2c1CCc1conc1-2 (configuration not stated)
-15%,·,2%,2%,·,2%,-5%,COc1cccc(/C=N\n2c(C)nnc2C)c1OC
0%,-6%,35µM*,5%,-7%,2%,9%,CSc1cccc(NCc2ccc([N+](=O)[O-])cc2)c1
19%,-19%,·,4%,·,-5%,·,Cc1cc2nc3c(nc2cc1C)C(O)=C3O
-11%,18%,-4%,-5%,-2%,0%,12%,O=C(CSc1ncn[nH]1)c1cc2ccccc2o1
3%,13%,?,5%,-2%,8%,-1%,CNc1nc(C(=O)O)nc(N2CCOCC2)n1
-3%,0%,·,-10%,·,-1%,·,COc1ccc(/C=C/C(=O)NC(=S)NNC(=O)c2cc(OC)c(OC)c(OC)c2)cc1
-2%,-10%,14µM*,9%,-27%,3%,1%,O=C(c1cccc(F)c1)N1CCC(N2CCOCC2)CC1
10%,7%,?,-12%,8%,2%,-8%,COCCCNCCOc1ccc(C)cc1[N+](=O)[O-]
12%,17%,2%,3%,-16%,3%,-4%[15.4 µM],COCC(C)NC(=O)c1ccc(CN2CCc3ccccc3C2)cc1 (configuration not stated)
1%,0%,2µM*,9%,3%,-10%,-3%,O=C(CC1Sc2ncnn2C1=O)Nc1ccccc1 (configuration not stated)
?,-6%,3.2µM*,-1%,·,-6%,3%,O=C(NC(=S)Nc1cccc2c(O)cccc12)c1cccc(Br)c1
0%,-13%,5%,-10%,-74%[inhibitor],-8%,4%,C(=C1/CCCC2=C1Nc1ncnn1C2c1ccccc1)/c1ccccc1 (configuration not stated)
1%,-18%,0%,9%,5%,-1%,7%,COc1ccccc1N1CCN(C2CCN(C(=O)COc3cccc(C)c3)CC2)CC1
-10%,-1%,0%,-2%,0%,-1%,-13%,Cc1ccc(S(=O)(=O)N2CCCCC2)cc1NC(=O)COc1ccccc1F
-4%,3%,-2%,2%,-14%,-5%,0%,CC1CCCN(CC(=O)Nc2ccc(S(=O)(=O)NC3CCCCC3)cc2)C1 (configuration not stated)
0%,1%,?,6%,10%,1%,-4%,O=C(CNCc1ccc(Cl)cc1)Nc1ccc2c(c1)OCCO2
